BasE inh: BasE siderophore enzyme inhibitors, primary screen, biochemical, Acinetobacter baumannii ATCC 17978, fluorescence polarization; purified BasE, fluorescence polarization binding displacement; inhibition, % (test concentration not listed); 84,000 tested, 0.1% active; AID 485350, 2010;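 active = both replicates above 25% with normal brightness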;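 note: 0% = negative plate control signal and 100% = positive plate control signal; stock transfer was 100 nL into about 30 µL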
LANA-nucl inh: inhibitors of KSHV LANA-nucleosome binding, primary screen, biochemical, fluorescence polarization, FITC-LANA1-23, chicken nucleosomes; 51,000 tested, 0.3% active; z-score (test concentration not listed); FITC-LANA1-23 / chicken nucleosome fluorescence polarization; active compounds read low; AID 720717, 2013;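 active = both repeat wells score below -2 in polarization z-score versus plate sample wells, excluding overly bright wells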;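 note: 100 nL library stock added to about 30 µL; numbers are from one replicate; some results filed as inactive read as strong as hits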
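Material: Purified chicken nucleosomes with FITC-labelled LANA N-terminal peptide (1-23) | Reagent: 50 nM FITC-LANA1-23 probe | Medium: TEN-BT buffer, pH 7.5 | Times: 10–45 min incubation at room temperature | Detection: Fluorescence polarization | Replication: Duplicates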
Active calls of the source: *; / = not tested or not shown; & = joins results of further samples.

SMILES,BasE inh,LANA-nucl inh
Fc1ccc(-c2noc3ncnc(N(Cc4ccco4)CC4CCCO4)c23)cc1 (stereo not given),-0.4,/
N/C(=N\c1nc2ccccc2s1)NC(=O)c1cccc(Cl)c1,0.9,/
CC(Sc1ncnc2c1cnn2-c1ccccc1)C(=O)NC(N)=O (stereo not given),2.4,/
Cc1cc(/C=N\NC(=O)COc2cccc3cccnc23)c(C)n1-c1cccnc1,-0.5,0.18
Cn1c(=O)n(C)c2cc(Nc3nc4ccc(Cl)cc4n4nnnc34)ccc21,2.1,-0.4
OCc1nc2ccccc2n1Cc1ccc2ccccc2c1,-0.3,/
CCOc1cc(/C=C2\C(=N)N3C(C)=CSC3=NC2=O)ccc1OCc1ccc2c(c1)OCO2,-0.3,/
COc1ccc(Oc2ccccc2C#N)cc1,/,-0.12
CCC12CN(S(=O)(=O)c3ccccc3)CC(CC)(CN(S(=O)(=O)c3ccccc3)C1)C2=O,4.0,/
O=c1c(-c2nnnn2-c2ccc(Cl)cc2)c[nH]c2ccccc12,0.2,0.22
Cn1nc(-c2ccccc2)c(C(O)c2cccs2)c1Cl (stereo not given),/,-0.87
CC1Cc2ccccc2N1C(=S)Nc1ccc(S(N)(=O)=O)cc1 (stereo not given),-2.5,0.24
COC(=O)c1sc2ncn(-n3cccc3)c(=O)c2c1C,1.7,/
CC(C)C(=O)Oc1cc(OC(=O)C(C)C)c2ccccc2c1,0.7,/
CN(C)S(=O)(=O)c1ccc(C(=O)NC(=O)CSc2nnc(C3CC3)n2-c2ccccc2)cc1,-0.3,/
Cc1ccc(C2C(N)C(=O)N2c2ccc(C)cc2)cc1 (stereo not given),-0.2,1.2
CCOc1ccc(CCNC(=O)Cn2sc3nc(C)cc(C)c3c2=O)cc1,-2.5,-0.15
O=C(Nc1nnc(-c2ccccc2)o1)Nc1ccccc1Cl,4.6,-0.63
CN(C)C1(CNC(=S)NC2CCCCC2)CCCCC1,1.3,/
Cn1c(Cc2ccccc2)nnc1SCC#N,0.6,-0.58

SMILES,BasE inh,LANA-nucl inh
CCN(CC)C(=O)N1CCc2cc(OC)c(OC)cc2C1c1cc2cc(C)ccc2n(C(=O)N(CC)CC)c1=O (stereo not given),-1.0,-0.77
Cc1nc(S(=O)(=O)Cc2ccccc2Cl)nc2c1CCC2,/,-1.2
CNC(=O)NC(=O)CSc1nc2sc3c(c2c(=O)n1C)CCCC3,1.1,/
O=C(CSCc1cnn(-c2ccccc2)c1-n1cccc1)NCCc1ccccc1,-2.4,-0.38
CC(Sc1nc(N)cc(=O)[nH]1)c1nc2ccccc2c(=O)[nH]1 (stereo not given),-1.5,0.52
CCn1c(=N)c(C(N)=O)cc2c(=O)n3ccccc3nc21,-2.4,1.9
Fc1ccc(Nc2ncnc3c2oc2ccccc23)cc1,-1.8,/
COc1ccc(-c2nnc(SCc3nc4ccccc4c(=O)n3CC#N)o2)cc1,-8.8,/
CCN1C(=O)c2ccccc2S(=O)(=O)c2ccc(C(=O)NCC3CCCO3)cc21 (stereo not given),2.3,-0.24
Cc1ccccc1NC(=O)C1CCCCC1,0.3,-0.67
CC1C(=O)CC(c2ccccc2)OC1c1ccccc1 (stereo not given),18,-0.98
Cc1cc(C)cc(N(CC(=O)N=Nc2c(O)[nH]c3ccccc23)S(C)(=O)=O)c1,0.7,0.026
COc1cccc(NC(=O)/C=C/c2ccco2)c1,-0.3,-0.4
Cc1ccc(-c2nc(C=Nc3ccc4c(c3)OCCO4)c(O)o2)cc1,-1.2,-0.64
N#Cc1c(-c2ccccc2)no[n+]1[O-],-1.0,-0.08
CSc1nc(N/C=C(\C#N)C(=O)c2cccs2)n2nc(C)cc2n1,-4.3,3.5
C=CCn1c(=O)c(C(=O)NCC2CCCN2CC)c(O)c2cc(OC)c(OC)cc21 (stereo not given),1.6,-0.093
Cc1cc(C(=O)CSc2nnc(CCC(N)=O)n2CC(C)C)c(C)n1-c1ccc(C(C)C)cc1,-33,/
O=C(COc1ccccc1)NCC1CCCO1 (stereo not given),2.7,2.4
Nc1nc(SCC(=O)Nc2ccccc2)ncc1S(=O)(=O)c1ccccc1,0.0,-1.9

SMILES,BasE inh,LANA-nucl inh
CN1C(N)=NC(=O)/C1=C/c1cc(Br)c(O)c(Br)c1,-0.5,-0.065
C=CCNc1nnc(SCC(=O)NC2CCS(=O)(=O)C2)s1 (stereo not given),-2.2,/
O=C(Nc1ccccc1C(=O)NCc1ccccc1)c1ccco1,0.5,0.095
Cc1onc(-c2c(Cl)cccc2Cl)c1C1=NCCO1,2.4,-1.3
O=C(N1CCCCC1)C1(c2ccccc2)CCOCC1,1.2,0.34
COC(=O)CN(c1ccccc1)S(=O)(=O)c1ccc(OC)cc1,1.5,0.77
CCOC(=O)Cn1c2ccc(F)cc2c2nc3ccccc3nc21,-0.2,-0.049
Cc1cc(C)nc(NS(=O)(=O)c2ccc(NC(=O)c3ccc(N4C(=O)CCC4=O)cc3)cc2)n1,3.2,-0.48
CC1CCCC(NC(=O)CSc2ncccc2C(=O)O)C1C (stereo not given),-2.7,/
Cc1sc2nc(CN3CCCC3)nc(N3CCC(C(N)=O)CC3)c2c1C,-1.4,/
Brc1ccc(-c2csc(=NC3CC3)n2N=C2CCCC2)s1,-2.8,/
CC(C(=O)NCc1ccc2c(c1)OCO2)N(c1ccccc1)S(C)(=O)=O (stereo not given),0.4,-0.4
COc1ccc(-c2cc(N)n[nH]2)c(OC)c1,2.4,-0.25
CC(C)(C)C(O)(CCc1ccccc1)Cn1cncn1 (stereo not given),2.8,/
CS(=O)(=O)NCCn1ccc2ccccc21,-1.3,-0.94
O=S(=O)(NCc1csc(-c2cccs2)n1)c1cccs1,-1.3,-0.13
CNC(=S)N/N=C/c1cccnc1,3.0,-0.79
O=C(CCC(=O)c1cccs1)Nc1nnc(C2CC2)s1,-7.4,/
COC(=O)C(Sc1c[nH]c2ccccc12)(C(F)(F)F)C(F)(F)F,-0.9,-0.4
CC1CCN(CN2CC(Cn3c4ccccc4c4ccccc43)OC2=O)CC1 (stereo not given),0.7,/

Whole records as entered above.
Results for COC(=O)C(Sc1c[nH]c2ccccc12)(C(F)(F)F)C(F)(F)F → BasE inh = -0.9; LANA-nucl inh = -0.4
Results for Cc1cc(/C=N\NC(=O)COc2cccc3cccnc23)c(C)n1-c1cccnc1 → BasE inh = -0.5; LANA-nucl inh = 0.18
Results for O=C(Nc1nnc(-c2ccccc2)o1)Nc1ccccc1Cl → BasE inh = 4.6; LANA-nucl inh = -0.63

(cont.)
SMILES,BasE inh,LANA-nucl inh
CCOC(=O)c1ccc(CC(=O)c2cc(CC)c(O)cc2O)o1,-2.2,1.8
S=c1nc[nH]c2ccccc12,-2.0,/
CCC(=O)n1nc(-c2ccc(OC)cc2)nc1SC,-1.2,-0.2
O=C(CSc1nc2ccccc2o1)OCc1cc(=O)oc2cc3c(cc12)CCC3,-1.7,/
Cc1ccc(CN(C)C(=O)c2ccc(C)c(NC(=O)c3ccco3)c2)o1,-0.3,/
N#Cc1ccc(-c2cccc(C(F)(F)F)c2)o1,-0.7,-0.25
CC(C)CCn1c(=O)c2ccccc2n2c(COC(=O)c3ccc(S(=O)(=O)N(C)C)cc3)nnc12,0.3,/
Cc1ccc(Oc2ncccc2NS(=O)(=O)c2cn(C)c(C)n2)c2c1CCC2,1.5,0.054
CC(C)c1nc(N(C)S(C)(=O)=O)nc(-c2ccc(F)cc2)c1/C=C/[C@@H](O)C[C@@H](O)CC(=O)O,1.1,0.7&0.24
COc1cc(-c2nnc(NC(=O)CS(=O)(=O)c3ccc(Cl)cc3)o2)cc(OC)c1OC,1.9,0.38
CCOc1ccc(S(=O)(=O)N=C2C=CC(=O)C=C2)cc1,6.8,/
CC(NC(N)=O)C1CC2CCC1C2 (stereo not given),1.2,/
O=C(Cc1ccccc1)NCC(=O)N1CCCCC1,-2.0,1.7
COc1ccc(O)c(C(=O)c2cnc3nc4ccccc4n3c2)c1,0.1,/
CN(C)c1nc2ccc(OCCN3CCCCC3)cc2s1,0.3,-0.69
CCCc1cc(=O)[nH]c(SCC(=O)N2CC(=O)Nc3ccccc32)n1,-0.2,/
C[C@@]1(C2CCCC2)Cc2cc(OCC(=O)O)c(Cl)c(Cl)c2C1=O,2.2,-0.42
OC1(c2ccccc2)CC2CCC(C1)N2c1ncccn1 (stereo not given),2.7,-1
ON=C1C2CC3CC(C2)CC1C3,0.4,0.29
CCOC(=O)C(C)Oc1ccc(OCc2ccccc2)cc1 (stereo not given),/,1.6

SMILES,BasE inh,LANA-nucl inh
CCOC(=O)c1ccc(-n2c(N)c(C(=O)N3CCCC3)sc2=S)cc1,1.5,-0.046
CCCN1C(=O)/C(=N\OCC(=O)N2CCC(C)CC2)c2ccccc21,1.4,/
Cc1noc(NS(=O)(=O)c2ccc(NC(=O)c3ccncc3)cc2)c1C,4.0,/
CC(=O)N(Cc1ccccc1)Cc1cc2cc(C)ccc2n2nnnc12,-0.5,0.082
O=C(NCCN1CCN(Cc2ccccc2)CC1)Nc1ccc(OCc2ccccc2)cc1,0.3,0.63
CC(C)(CC(=O)N1CCN(c2ncccc2C(F)(F)F)CC1)Sc1ccc(Cl)cc1,/,-0.46
O=C(NC(=S)Nc1ccc(Nc2ccccc2)cc1)c1ccco1,1.6,/
Cc1c(C(=O)NC(=S)Nc2ccc(C(=O)OC(C)C)cc2)oc2ccccc12,-1.9,-1.5
O=c1[nH]cc(S(=O)(=O)N2CCC3(CC2)OCCO3)c(=O)[nH]1,2.8,-0.97
Cc1ccc(NC(=O)c2snnc2C)cc1,-0.2,-0.19
CN1C(=O)/C(=C/c2ccc(N3CCCC3)c(F)c2)C(=O)NC1=S,-0.5,-0.15
Cc1ccc(S(=O)(=O)Cc2ccc(C(=O)N3CCN(Cc4ccccc4)CC3)o2)cc1,-1.3,0.11
COc1ccc2nc(C)sc2c1,0.5,/
CC1=NNC(=O)C1CC(=O)N/N=C/C=C/c1ccccc1 (stereo not given),0.7,-0.33
CC(=O)Nc1ccc2c(COC(=O)Cc3ccc4c(c3)OCCO4)cc(=O)oc2c1,1.1,/
c1ccc(CCC2CCNCC2)cc1,-3.0,1.8
CC(C)(C)c1ccc(-c2nnc(-c3ccccc3NC(=O)CCC(=O)O)o2)cc1,3.9,/
OC1(c2cccc(C(F)(F)F)c2)CCN(c2ccc(-c3ccccc3)nn2)CC1,1.9,-1.7
C=CCn1c(SCC(=O)NC(=O)NC)nnc1-c1ccc(Cl)cc1Cl,-2.3,/
COC(=O)c1ccc2c(c1)nc(C)n2CCO,0.6,/

2 consecutive entries out of the list so far, for reference:
SMILES,BasE inh,LANA-nucl inh
CC(=O)N(Cc1ccccc1)Cc1cc2cc(C)ccc2n2nnnc12,-0.5,0.082
O=C(NCCN1CCN(Cc2ccccc2)CC1)Nc1ccc(OCc2ccccc2)cc1,0.3,0.63

Continued.
SMILES,BasE inh,LANA-nucl inh
Cc1cc(C)n2c(SCC(=O)N3CCc4ccccc43)nnc2n1,-0.1,/
CC(C)=NNCOc1ccc(OCc2ccccc2)cc1,-2.9,/
CC12CCC(=O)N1C(C(=O)N1CCN(c3ccccc3)CC1)CS2 (stereo not given),0.6,/
N#C/C(=C\c1cnc2ccccc2n1)S(=O)(=O)c1ccccc1,29,-0.36
CC(C)(C)NC(=O)C1CC(=O)N(c2ccccc2)C1 (stereo not given),-1.3,-0.45
O=S(=O)(c1ccc(N2CCCCC2)cc1)C(F)(F)F,-1.9,0.045
COc1cc(C(=O)O)ccc1OCc1c(C)noc1C,0.7,/
O=C1CC(N2CCC(c3nc4ccccc4[nH]3)CC2)C(=O)N1 (stereo not given),-0.3,-0.45
CSc1ncc(C(=O)Nc2cccnc2)c(C(F)(F)F)n1,1.9,0.5
c1ccc(-c2nnc(SCCN3CCOCC3)o2)cc1,-0.3,-0.87
COc1ccc(Nc2c3c(nc4ccc(NC(=O)c5ccc(Br)o5)cc24)CCCC3)cc1OC,-0.4,-0.47
NNC(=O)CC1=Nn2c(nnc2-c2cccs2)SC1,-1.6,/
O=C1CC(N2CCN(Cc3ccccc3)CC2)C(=O)N1 (stereo not given),-0.1,-1.6
Cc1ccc(O)c(C(=O)CSc2nnc(-c3ccccn3)c(-c3ccccn3)n2)c1,0.6,0.1
CNC(=O)N(c1ccccc1)c1ccccc1,0.6,/
O=C(O)C(CO)N1Cc2ccccc2C1=O (stereo not given),/,0.66
Cc1cc(CNC(=O)Nc2ccc3c(c2)OCO3)c(C)n1-c1ccc(F)cc1,-4.1,/

These rows are one share of the data; the hit share may differ from the screen's.
